Assay outcomes: PubChem, National Center for Advancing Translational Sciences (NCATS)
Rango complex inh: Rango-importin beta binding inhibition. 340,000 compounds, 0.031% hits. Rango CFP/YFP FRET sensor + importin beta, 45 min. Potency, µM (top dose mostly 92.2 µM), without a hit: top-dose inhibition of complex formation; active = rising FRET ratio curve, often small or poorly fitted; inconclusive = mostly compound fluorescence or quenching in the first reads; inactive = flat curves in all reads;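 also: potency is read from the fitted curve at half-maximal effect; 0% = DMSO wells and 100% = buffer wells lacking importin beta; nearly all actives have a fitted effect of over 15% in size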
Target sequence (Q14974 whole entry, looked up): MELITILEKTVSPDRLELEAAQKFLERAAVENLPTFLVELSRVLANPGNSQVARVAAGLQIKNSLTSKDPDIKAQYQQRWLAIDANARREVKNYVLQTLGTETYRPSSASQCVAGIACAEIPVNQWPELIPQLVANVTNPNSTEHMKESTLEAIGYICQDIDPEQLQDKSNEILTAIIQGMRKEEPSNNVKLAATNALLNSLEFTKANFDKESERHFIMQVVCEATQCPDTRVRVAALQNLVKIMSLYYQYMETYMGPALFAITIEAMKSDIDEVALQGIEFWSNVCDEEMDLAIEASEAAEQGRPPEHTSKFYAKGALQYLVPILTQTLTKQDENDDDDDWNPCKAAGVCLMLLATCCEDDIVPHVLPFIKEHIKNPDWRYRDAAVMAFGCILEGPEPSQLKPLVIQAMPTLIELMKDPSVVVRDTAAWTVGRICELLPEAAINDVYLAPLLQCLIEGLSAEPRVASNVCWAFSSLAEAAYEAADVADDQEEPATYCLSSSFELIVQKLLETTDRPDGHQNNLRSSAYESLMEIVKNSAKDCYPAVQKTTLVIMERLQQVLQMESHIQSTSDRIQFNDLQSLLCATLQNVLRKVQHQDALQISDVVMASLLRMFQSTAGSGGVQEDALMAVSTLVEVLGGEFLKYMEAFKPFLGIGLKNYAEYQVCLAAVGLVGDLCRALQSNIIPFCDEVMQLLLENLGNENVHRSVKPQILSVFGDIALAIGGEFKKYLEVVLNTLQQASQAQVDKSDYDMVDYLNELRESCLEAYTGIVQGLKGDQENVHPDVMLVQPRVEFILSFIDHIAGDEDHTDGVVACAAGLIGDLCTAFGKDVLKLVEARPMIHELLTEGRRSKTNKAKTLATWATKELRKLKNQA
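FRET biosensor Rango (snurportin 1 IBB between N-terminal EYFP and C-terminal Cerulean), 50 nM in PBS/1 mM DTT/0.02% Tween-20/0.1% BSA, preincubated 5 min RT with compound; 0.125 microM importin beta added, 45 min RT, CFP/YFP FRET ratio read.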
miR-21 reporter: raises the signal of a miR-21 reporter; 340,000 tested, under 10 active; HeLa miR-21 FLuc reporter, luciferase, 48 h; Potency, µM (series often up to 38.3 µM), for the others: at the top dose reporter change, positive = more light; active = well fitted rising curve with a large enough effect; inconclusive = small, poorly fitted or top-dose-only effect; inactive = no such curve, though single readings can be large or run the other way;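 also: % of control where 0% means no effect; miR-21 action dims this reporter so a rising signal means less miR-21 action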
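HeLa miR-21-FLuc reporter line, endogenous miR-21; 2000 cells/well in DMEM/10% FBS; compound titration up to ~40uM final, 48 h, 37 degree Celsius; luciferase detection reagent, 15 min lysis, CCD luminescence.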
GLA inh pH 4.5: blocks human alpha-galactosidase A at pH 4.5; P06280; purified enzyme, 4-MU-alpha-Gal fluorescence, pH 4.5; activity change, negative = inhibition, % at 105 µM; 230,000 tested, under 10 active; AID 1467; inconclusive = small, poorly fitted or top-dose-only inhibition, or a rising curve; inactive = flat fitted curve, though single readings scatter; no compound was filed as active;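 also: 0% = full activity with enzyme and -100% = basal without enzyme; dose as in the result columns while the protocol names 77 µM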
Rango release inh: inhibition of RanGTP-driven Rango-importin beta dissociation; Potency, µM (doses to about 46.1 µM), for inactives: top-dose activity change, negative = inhibition; 340,000 compounds, 0.071% hits; Biochemical FRET Rango-importin beta, RanGTP-induced dissociation; active means falling FRET ratio curve, often poorly fitted, with flat reads before Ran was added; inconclusive means other falling curves, or compound fluorescence or quenching; inactive means flat or rising ratio curve;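 also: potency is read from the fitted curve at half-maximal effect; % of control where 0% means no effect; nearly all actives have a fitted effect of over 45% in size; -100% = wells without RanGTP and RCC1; the record marks most hits as doubtful in a second field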
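Compounds sat 5 min at room temperature with 0.1 uM Rango biosensor plus 0.25 uM importin beta, then FRET pre-read. RanGTP-RCC1 (0.6 uM Ran, 2mM GTP, 0.2 uM RCC1) added for 45 min, and the CFP/YFP post-read measured blocked complex dissociation.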
Active calls of the source: *; u = inconclusive; x = no result given; & = joins results of further samples. The list is partial; rates above refer to the full screens.

SMILES	Rango complex inh	miR-21 reporter	GLA inh pH 4.5	Rango release inh
COc1cccc(CN2CCN(C(=O)Cc3ccccc3OC)CC2)c1	-1.7%	-5%	x	4%
COCCNC(=O)CN1C(=O)C(C)N=C(c2ccccc2)c2cc(Cl)ccc21 (stereo not drawn)	7.4%	1%	x	-3%
Cn1c(O)c(/C=C2\N=c3ccccc3=C2CCNC(=S)NC2CC2)c(=O)n(C)c1=O	3.0%	3%	-1	1%
C(#CCN1CCOCC1)COCC#Cc1ccccc1	0.0%	-14%	-2	13%
O=C1NC(=O)C(CCc2ccncc2)(Cc2ccc(OCc3ccccc3)cc2)C(=O)N1	1.2%	0%	2	-9%
ClC1=C(Cl)C2(Cl)C3C(Cl)C=CC3C1(Cl)C2(Cl)Cl (stereo not drawn)	-0.8%	x	3	-2%
CCOc1cc(CNCCc2cccc(F)c2)ccc1OC	2.6%	-9%	x	3%
Cc1cc(C)cc(N2C(=O)NC(=O)/C(=C/c3cccn3-c3ccc(Cl)cc3)C2=O)c1	-0.6%	-1%	-9	0%
CCCCCn1c(=O)c(C(=O)Nc2ccccc2Cl)c(O)c2ccccc21	-1.2%	-11%	x	-16%
COc1ccc(CN2CCN(C(=O)COc3ccc4ccccc4c3)CC2)c(OC)c1	1.1%	10%	x	0%
O=C(NCC(c1cccnc1)N1CCOCC1)Oc1ccccc1 (stereo not drawn)	-0.4%	-83%	6	0%
O=C1/C(=C\c2ccc(Cl)c(Cl)c2)N2CCC1CC2	u	-1%	-9	0%
CC1CC2C(C(O)CC3(C)C(O)CCC23)C2(C)CCC(=O)C=C12 (stereo not drawn)	0.1%	x	x	35%
Cc1[nH]c2ccc(OC(F)(F)F)cc2c1CCNCc1ccc(Cl)cc1	-0.7%	u	x	0%
C=CCN1C(=O)/C(=C\c2ccc(N3CCOCC3)o2)C(=O)NC1=S	65µM*	1%	-5	7%
CCCCn1c(N)c(C(=O)OCC2CCCO2)c2nc3ccccc3nc21 (stereo not drawn)	u	-4%	u	u
CC1(C)C(=O)CCC2C1=CCC1C2CCC2(C)C(O)CCC12 (stereo not drawn)	0.2%	x	x	1%
N#Cc1ccccc1NC(=O)CN1CC=C(c2ccccc2)CC1	-2.7%	-37%	0	1%
COc1cc(Cl)c(C)cc1NC(=O)CCCn1c(=O)oc2ccccc21	3.3%	-8%	-5	u
Cc1ccc(NC2=NCCCS2)cc1Cl	-1.2%	-19%	x	-3%
C/C(=N\NC(=O)c1ccccc1)c1c(O)n(C2CCCCC2)c(=O)[nH]c1=O	4.5%	-42%	x	1%
CCOC(=O)C1(c2ccccc2)CCN(CC(=O)Nc2cccc3ccccc23)CC1	0.5%	2%	-4	3%
COc1cccc(CC(=O)N2CCN(Cc3cccc(Cl)c3)CC2)c1	-0.3%	-1%	x	-1%
O=c1[nH]c(=O)n(C2CCCCC2)c(O)c1/C=C/C=Nc1ccccc1	u	-1%	-1	u
CCCC(=O)NC(Oc1ccc(Cl)cc1Cl)C(Cl)(Cl)Cl (stereo not drawn)	1.4%	-2%	4	-8%
COc1ccc2[nH]c(C)c(CCNCc3cc(OC)c(OC)c(OC)c3)c2c1	u	4%	-10	49%
Cc1cc(N2C(=O)CC(N3CCC(n4c(=O)[nH]c5ccccc54)CC3)C2=O)no1 (stereo not drawn)	-3.2%	0%	10	1%
Cc1ccc(CN2CCCN(Cc3ccc(Cl)cc3)S2(=O)=O)cc1	1.5%	-3%	x	4%
COC(=O)C1=C(c2ccc(F)cc2F)C[C@@H]2CC[C@H]1N2C	0.1%	x	x	-4%
O=C(c1ccc(N2CC3CC(C2)c2cccc(=O)n2C3)c([N+](=O)[O-])c1)N1CCCC1 (stereo not drawn)	0.1%	1%	10	2%
COc1ccc(CC2c3cc(OC)c(OC)cc3CCN2C)cc1O (stereo not drawn)	-5.4%	-6%	-10	-9%
CC(=O)OC1(c2ccc(C)cc2)CN2CCC1c1ccccc12 (stereo not drawn)	1.3%	-2%	0	0%
O=C(CN1CCCC1=O)NCCc1ccccc1	-7.5%	-2%	6	-14%
O=[N+]([O-])c1ccc(N2CCNCC2)cc1NCC1CCCO1 (stereo not drawn)	-1.8%	-8%	-12	1%
Cc1ccc(-n2c(O)c(C=NCCCn3ccnc3)c(=O)[nH]c2=O)cc1	4.2%	-5%	-2	-8%
CN(C)C(=O)Oc1cccc(-c2cn3cc(Cl)ccc3n2)c1	0.8%	-46%	-5	-6%
COC(=O)c1c(C)n(Cc2ccco2)c2ccc(O)cc12	-0.5%	11%	-2	13%
COc1ccc(N=C(C)c2c(O)n(C3CCCCC3)c(=O)[nH]c2=O)c(OC)c1	3.5%	2%	-2	-12%
CN1CCC(O)(c2ccc(Cl)cc2)C(C(=O)c2ccc(Cl)cc2)C1 (stereo not drawn)	3.4%	-6%	-6	11%
C[N+](C)(C)CC(=O)O	1.9%	x	-7	1%
Cc1cc(N)n(C2CCN(C)CC2)n1	-3.5%	-3%	2	-2%
CC(=O)N1CCC2(CC1)CC(=O)c1cc(OCC(=O)N3CCC4(CC3)OCCO4)ccc1O2	2.7%	0%	21	-12%
CC1CN=C(Nc2ccc(F)c(Cl)c2)S1 (stereo not drawn)	0.5%	-27%	6	11%
CCOC(=O)N(C)c1ccc(C(O)(C(=O)OCC)C(F)(F)F)cc1 (stereo not drawn)	-13%	-6%	0	1%
O=C(c1cnn2c(C(F)(F)F)cc(-c3ccccc3)nc12)N1CCC2(CC1)OCCO2	u	0%	-4	0%
CCOc1c(P(=S)(N(C)C)N(C)C)c(C)nn1-c1ccccc1	-0.6%	-5%	8	21%
CCCn1c(C(=O)c2ccc(OC)cc2)nc2ccccc21	-2.0%	-7%	-3	-1%
CCn1c(C(=O)N2CCC(C(=O)N3CCC4(CC3)OCCO4)CC2)cc2sccc21	-4.4%	-4%	0	-1%
CC(C)NC(=O)c1ccc(N2CC3CC(C2)c2cccc(=O)n2C3)c([N+](=O)[O-])c1 (stereo not drawn)	1.3%	0%	-10	-3%
CN1C(=O)C(=Cc2sc(=O)n(-c3ccccc3)c2N2CCCCC2)C(=O)N(C)C1=O	u	-1%	-9	u

Other structures:
SMILES	Rango complex inh	miR-21 reporter	GLA inh pH 4.5	Rango release inh
CC1CCCCN1Cc1ccc(Cl)nc1 (stereo not drawn)	-2.8%	8%	9	4%
CC1CC(C)OP(=O)(OCCC#N)O1 (stereo not drawn)	0.4%	x	x	12%
COCCOC(=O)C1=C(N)Oc2c(c(=O)oc3ccccc23)[C@@]12C(=O)Nc1ccccc12	-3.0%	0%	-8	-15%
C=Cn1ccnc1P(=S)(c1ccn(C)c1)c1nccn1C=C	-0.7%	-3%	2	20%
COC(=O)C1=C(c2cccc(C#N)c2)C[C@@H]2CC[C@H]1N2C(=O)NCCCOC(C)C	5.2%	x	x	6%
O=c1[nH]c2ccccc2n1CCCN1CCC(n2c(=O)[nH]c3cc(Cl)ccc32)CC1	-0.5%	-22%	-7&6&1	-4%
CC(=O)Nc1nnc(CCN(CCc2nnc(NC(C)=O)s2)[N+](=O)[O-])s1	-0.1%	-1%	0	-3%
COCCNCCOc1ccc(C(C)(C)c2ccccc2)cc1	0.1%	-13%	-5	7%
COc1ccc(N=Cc2c(O)n(Cc3ccccc3)c(=S)[nH]c2=O)c(OC)c1	u	0%	-2	u
Cc1cc(C(=O)O)c(C)n1C1CC1	4.4%	-1%	9	-17%
CCC1(CC)C(=O)NC(=O)N(c2ccccc2)C1=O	-1.1%	x	x	10%
CCOC(=O)[C@]12Cc3cc(OC)ccc3[C@H]1N(Cc1ccccc1)C(=O)c1cc(F)c(F)cc12	u	x	x	-9%
CC(C)(C)c1cc(C=C(C#N)C#N)cc(C(C)(C)C)c1O	2.2%	x	-19	u
Cc1ccsc1CNCCc1ccccc1F	-0.1%	-12%	x	-6%
Cc1ccc(CS(=O)(=O)CCC(=O)N2CCC3(CC2)OCCO3)cc1	-0.2%	-3%	-24	-5%
O=C1C2CCCN2C(c2ccc(Cl)c(Cl)c2)N1c1ccccn1 (stereo not drawn)	-1.1%	-3%	-1	-7%
Cc1cccc(OP(N)(=O)Oc2cccc(C)c2)c1	7.2%	0%	-4	-3%
CCOC(=O)c1c(C)n(CCOC)c2ccc(O)cc12	-1.5%	-7%	0	-1%
OC(Cn1c2ccccc2c2ccccc21)C[n+]1cccc2ccccc21 (stereo not drawn)	5.1%	14%	4	15%
Cc1cccc(NC(=O)OC2CN3CCC2CC3)c1 (stereo not drawn)	1.3%	-17%	1	25%
COc1ccc2c(c1O)-c1cccc3c1[C@@H](C2)N(C)CC3	-1.3%	x	x	6%
CCOc1ccc(C2C(C#N)=C(N)Oc3c2c(=O)oc2ccccc32)cc1 (stereo not drawn)	-3.1%	-1%	1	-9%
O=[N+]([O-])c1cc(-n2cnnn2)c(O)c([N+](=O)[O-])c1	u	5%	-4	-12%
O=C1/C(=C\c2cccnc2)N2CCC1CC2	9.1%	0%	8	10%
Cn1c(O)c(C=NCCN2CCOCC2)c(=O)n(C)c1=S	2.7%	11%	4	5%
O=C(Cc1ccccc1)N1CCN(Cc2ccccc2Cl)CC1	-3.2%	-6%	x	8%
C[C@H]1CCCC(=O)CCCCCc2cc(O)cc(O)c2C(=O)O1	2.5%	11%	2	1%
Cc1nc2c(=O)n(C)c(=O)nc-2n(C)n1	-0.5%	u	-18	-6%
COC(=O)C1=C(c2cc3ccccc3o2)C[C@@H]2CC[C@H]1N2C	0.6%	x	x	7%
C[C@](N)(CCP(=O)(O)O)C(=O)O	2.7%	x	3	18%
COc1cccc(CNCCc2cccc(F)c2)c1OC	6.0%	-12%	x	-5%
CC(C)Oc1cccc(C(=O)C2CCCN(C3CCOCC3)C2)c1 (stereo not drawn)	-3.6%	5%	2	-1%
COCCOC(=O)c1c(C)n(C)c2ccc(OC(=O)N(C)C)cc12	0.8%	0%	1	-4%
Cc1nn(-c2ccccc2)c(C)c1NC(=O)COC(=O)Cc1ccccc1	-1.3%	x	x	31%
Cc1cc(/C=C2\C(=O)NC(=O)N(c3ccc(Cl)cc3)C2=O)c(C)n1C	u	-3%	0	u
CC(=O)c1ccccc1NC(=O)C1C2CCC(O2)C1C(=O)O (stereo not drawn)	x	-2%	-12	x
O=[N+]([O-])c1cccc(NP(=O)(Oc2ccccc2)Oc2ccccc2)c1	4.6%	19%	x	-14%
O=C(c1cccn2c(=O)c3ccccc3nc12)N1CCC2(CC1)OCCO2	u	-3%	10	u
CC(C(=O)c1ccccc1)N1C(=O)c2ccccc2C1=O (stereo not drawn)	0.2%	-4%	6	16%
N[C@@]1(C(=O)O)CC[C@@H](C(=O)O)C1	4.2%	x	1	0%

Just GLA inh pH 4.5 (3 entries from above):
mol,GLA inh pH 4.5
CC(C(=O)c1ccccc1)N1C(=O)c2ccccc2C1=O (stereo not drawn),6
Cc1cc(/C=C2\C(=O)NC(=O)N(c3ccc(Cl)cc3)C2=O)c(C)n1C,0
C[C@](N)(CCP(=O)(O)O)C(=O)O,3
